# Compound activity as filed in PubChem BioAssay.
# HSV replic up: increases HSV replication in cells | 0.005% of 220,000 active | HSV replication augmentation in cells, fold increase | maximum fold increase;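 active means peak rise of 1.5-fold or more in the series; tested in PC3 cells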;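 further: first round at 10 µM; read as green reporter fluorescence; hits show the peak of a series up to 25 µM; 1 = signal of infected wells without compound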
# RGS16-Gao HTS: modulates binding between human RGS16 and Galphao. O15492+P09471. bead-based flow cytometry RGS16-Galphao binding, fluorescence; actives lie on both sides. AID 1441. binding response (% of control), % at 10 µM. 0.38% of 220,000 active;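 active means below 25% or above 175%, edge rows of some plates excepted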;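 further: Galphao activated by GDP with aluminum fluoride before binding; 100% = wells without compound and 0% = beads without RGS; some results beyond the cut were filed as inactive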
# Target sequence (O15492 whole entry, looked up): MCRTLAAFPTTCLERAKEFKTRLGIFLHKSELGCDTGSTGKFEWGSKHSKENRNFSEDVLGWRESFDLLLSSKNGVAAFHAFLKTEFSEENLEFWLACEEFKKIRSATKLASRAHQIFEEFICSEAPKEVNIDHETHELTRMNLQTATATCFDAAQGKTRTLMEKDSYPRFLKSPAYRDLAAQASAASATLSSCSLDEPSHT
# Target sequence (P09471 whole entry, looked up): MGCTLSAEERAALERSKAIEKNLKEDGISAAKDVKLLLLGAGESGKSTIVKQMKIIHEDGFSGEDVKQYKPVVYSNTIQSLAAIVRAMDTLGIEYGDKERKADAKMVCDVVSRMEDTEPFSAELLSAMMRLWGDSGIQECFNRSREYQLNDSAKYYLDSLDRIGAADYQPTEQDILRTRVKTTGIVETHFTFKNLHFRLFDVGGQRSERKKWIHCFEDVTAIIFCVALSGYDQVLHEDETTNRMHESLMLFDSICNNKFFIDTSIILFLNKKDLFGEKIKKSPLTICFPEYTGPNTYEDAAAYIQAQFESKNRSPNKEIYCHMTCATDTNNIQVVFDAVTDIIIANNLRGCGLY
# HSV replic up primary fold: recorded beside HSV replic up, whose call it bears; fold increase; compound at 10 µM; measured here: primary screen fold increase 10 uM; tested in PC3 cells;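 GFP signal in the first replicate; 1 = infected wells without compound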
# Numbers without * were called inactive; i = inactive; . = not tested or not shown.
item	Compound	HSV replic up	HSV replic up primary fold	RGS16-Gao HTS
1	CCCCNC(=O)C(c1ccc(OCC(=O)OC)c(C(=O)OC)c1)N(CCOC)C(=O)CCCCCN1C(=O)NC(c2ccc(-c3ccccc3)cc2)C(C(=O)OCc2ccccc2)=C1C (stereo unspecified)	.	.	89.8
2	Cc1ccc(NS(=O)(=O)c2cc([N+](=O)[O-])ccc2N/N=C/c2sc(N3CCOCC3)nc2-c2ccccc2)c(C)c1	.	.	103.3
3	CCC(=O)Oc1ccc2c(c1)O/C(=C\c1ccco1)C2=O	.	.	95.7
4	O=C(O)c1ccc(/C=N/Nc2ncc(C(F)(F)F)cc2Cl)cc1	.	.	104.4
5	CCCCNc1ccc2c3c(cccc13)C(=O)N(CCCC)C2=O	.	.	103.2
6	CCOC(=O)CC1C(=O)NCCN1c1nc2ccc(C)cn2c(=O)c1/C=C1\SC(=S)N(CC(C)C)C1=O (stereo unspecified)	.	.	102.4
7	CC1=C(C(=O)O)N2C(=O)[C@@H](NC(=O)[C@H](N)c3ccccc3)[C@H]2SC1	.	.	100.9
8	CCCc1cc(=S)n2c([nH]c3ccccc32)c1C#N	.	.	97.3
9	COc1ccc(C(=O)/C=C/c2ccc(N(C)C)cc2)c(OC)c1	.	.	104.8
10	CS(=O)(=O)Oc1ccc2c(c1)O/C(=C\C=C\c1ccccc1)C2=O	.	.	99.6

# Continuation:
item	Compound	HSV replic up	HSV replic up primary fold	RGS16-Gao HTS
11	COc1ccc2cc(CCC(C)=O)ccc2c1	.	.	101.7
12	C/C=C/C=C/C(=O)Nc1cccc(C2=NOC3(C2)C[C@H](C(N)=O)N(C(=O)CC(c2ccccc2)c2ccccc2)C3)c1 (stereo partly specified)	.	.	96.6
13	CCCCCCN(C(=O)CCCCCN1C(=O)NC(c2ccc(-c3ccccc3)cc2)C(C(=O)OCc2ccccc2)=C1C)C(C(=O)NCCCC)c1ccc(OCC(=O)OC)c(C(=O)OC)c1 (stereo unspecified)	.	.	104.8
14	CN(C)c1ccc(C2C=C(c3ccc(Cl)cc3OC(F)F)Nc3ncnn32)cc1 (stereo unspecified)	.	.	98.2
15	CN1C(=CC=C2C=C(I)C(=O)C(I)=C2)C(C)(C)c2ccccc21	.	.	97.8
16	C#CCOCCOCCOCCNc1nc(N2CCN(C(=O)[C@H]([C@@H](C)CC)n3cc([C@@H](N)CO)nn3)CC2)nc(N2CCN(C(=O)[C@H](Cc3cc4ccccc4[nH]3)n3cc([C@@H](N)Cc4ccc(O)cc4)nn3)CC2)n1	.	.	100.8
17	CCN(CC)c1ccc(/C=N/Nc2nc(C)cc(C)n2)cc1	.	.	102.5
18	Cc1cc(O)c(C(C)C)cc1N=Cc1ccccc1O	.	.	96.6
19	CCCN1C(=O)/C(=C/c2c(N3CCNC(=O)C3CC(=O)OCC)nc3c(C)cccn3c2=O)SC1=S (stereo unspecified)	.	.	101.8
20	CC(C)CNC(=O)C1Nc2ccc(C(F)(F)F)cc2C2C=CCC12 (stereo unspecified)	i	1.07	.

# 6 records drawn at random from the list so far:
item	Compound	HSV replic up	HSV replic up primary fold	RGS16-Gao HTS
5	CCCCNc1ccc2c3c(cccc13)C(=O)N(CCCC)C2=O	.	.	103.2
12	C/C=C/C=C/C(=O)Nc1cccc(C2=NOC3(C2)C[C@H](C(N)=O)N(C(=O)CC(c2ccccc2)c2ccccc2)C3)c1 (stereo partly specified)	.	.	96.6
4	O=C(O)c1ccc(/C=N/Nc2ncc(C(F)(F)F)cc2Cl)cc1	.	.	104.4
7	CC1=C(C(=O)O)N2C(=O)[C@@H](NC(=O)[C@H](N)c3ccccc3)[C@H]2SC1	.	.	100.9
13	CCCCCCN(C(=O)CCCCCN1C(=O)NC(c2ccc(-c3ccccc3)cc2)C(C(=O)OCc2ccccc2)=C1C)C(C(=O)NCCCC)c1ccc(OCC(=O)OC)c(C(=O)OC)c1 (stereo unspecified)	.	.	104.8
2	Cc1ccc(NS(=O)(=O)c2cc([N+](=O)[O-])ccc2N/N=C/c2sc(N3CCOCC3)nc2-c2ccccc2)c(C)c1	.	.	103.3

# The list continues:
item	Compound	HSV replic up	HSV replic up primary fold	RGS16-Gao HTS
21	Cc1csc2ncc(C(=O)Nc3cccc(C(F)(F)F)c3)c(=O)n12	i	0.78	.
22	Cn1c(=O)c2c(nc(SC3C(=O)CC(C)(C)CC3=O)n2C)n(C)c1=O	i	0.83	.
23	COC(C/C=C\C(=O)[C@H](C)OCc1ccccc1)OC	i	0.92	.
24	O=C1Nc2cc(Cl)ccc2Nc2cscc21	i	1.15	.
25	CC1(C)c2[nH]c3ccccc3c2C[C@H]2C(=O)N(Cc3cccc(F)c3)C(=O)N21	i	0.83	.
26	CC(=O)c1c(C)nn(C(=O)N2CCOCC2)c1C	i	0.96	.
27	Cc1ccc(-n2c3c(cc(C(=O)NCCCN4CCOCC4)c2=O)C(=O)CC(C)(C)C3)cc1	i	1.1	.
28	COc1ccc(Cl)cc1Nc1nc(NCCO)nc(N2CCCCC2)n1	i	0.59	.
29	CC(=O)C[C@H]1c2cc(C(F)(F)F)ccc2S(=O)(=O)N1c1ccccc1	i	0.78	.
30	CC1(C)CC(=O)C=C(c2ccc3c(c2)OCO3)C1	i	0.65	.

# Carrying on.
item	Compound	HSV replic up	HSV replic up primary fold	RGS16-Gao HTS
31	COc1c(Cl)cc(C(=O)O)cc1Cl	i	1.1	.
32	CCOC(=O)C1=C(C)N(C)C(=O)NC1c1cccc([N+](=O)[O-])c1 (stereo unspecified)	i	0.82	.
33	CCC1(CC)C(=O)Nc2ccccc21	i	1.06	.
34	O=[N+]([O-])c1cc(-c2csc(NCCc3nc4cc(C(F)(F)F)ccc4n3CCCO)n2)ccc1Cl	i	0.71	.
35	CC(=O)O[C@H]1C(=O)[C@]2(C)[C@H]([C@H](OC(=O)c3ccccc3)[C@]3(O)C[C@H](OC(=O)[C@H](O)[C@@H](NC(=O)c4ccccc4)c4ccccc4)C(C)=C1C3(C)C)[C@]1(OC(C)=O)CO[C@@H]1C[C@@H]2O	i	0.57	.
36	CC(C)CCNC(=O)C1CC2Cn3c(nc4cc(Cl)c(Cl)cc43)C2N1C (stereo unspecified)	i	0.95	.
37	O=C(O)C1=C[C@H](c2ccc3c(c2)OCO3)C[C@H](OCCCCO)O1	i	0.98	.
38	O=c1[nH]c2ccccc2cc1-c1nnn(-c2ccc(Cl)c(Cl)c2)n1	i	1.05	.
39	NC(=O)COC(=O)C(Cc1ccccc1)NS(=O)(=O)c1ccccc1F (stereo unspecified)	i	0.89	.
40	CC(C)n1nc(Cc2cccc3ccccc23)c(C#N)c1N	i	0.72	.

# Brought forward from above: 3 entries, followed by the next part.
item	Compound	HSV replic up	HSV replic up primary fold	RGS16-Gao HTS
38	O=c1[nH]c2ccccc2cc1-c1nnn(-c2ccc(Cl)c(Cl)c2)n1	i	1.05	.
39	NC(=O)COC(=O)C(Cc1ccccc1)NS(=O)(=O)c1ccccc1F (stereo unspecified)	i	0.89	.
40	CC(C)n1nc(Cc2cccc3ccccc23)c(C#N)c1N	i	0.72	.
41	CCCCN1CC[C@H]2C=CC[C@@H](C(=O)NCc3ccc(OC)cc3)[C@H]2C1=O	i	0.79	.
42	Nc1ccc(C#Cc2c(-c3ccsc3)oc3ccc(N4CCOCC4)cc23)cc1	i	0.66	.
43	CCCNC(=O)C1CC(c2ccccc2[N+](=O)[O-])=NO1 (stereo unspecified)	i	0.96	.
44	C=C1CCN([C@@H](CC(C)C)C(=O)N2CCCC2)S(=O)(=O)c2ccccc21	i	0.87	.
45	O=C1N[C@@H](Cc2ccccc2)C(=O)N2[C@@H]1C[C@]1(Br)c3ccccc3N(S(=O)(=O)c3ccccc3)[C@H]21	i	0.7	.
46	CC(C)(C)NC(=O)[C@@H]1CN(Cc2cccnc2)CCN1C[C@@H](O)C[C@@H](Cc1ccccc1)C(=O)N[C@H]1c2ccccc2C[C@H]1O	i	0.92	.
47	COc1c2c(cc3oc(=O)c4c5ccc(O)cc5oc4c13)OC(C)(C)CC2	i	0.84	.
48	CC[C@@H]1CN(C)[C@H]2Cc3c([nH]c4ccccc34)C(=O)C[C@@H]1[C@@H]2C(=O)OC	i	0.79	.
49	Cc1csc(NC(CO)c2nc3ccccc3n2CCOCCO)n1 (stereo unspecified)	i	1.07	.
50	O=C1CC2(CCCC2)Oc2ccc(Cl)cc21	i	0.69	.

# Continuation.
item	Compound	HSV replic up	HSV replic up primary fold	RGS16-Gao HTS
51	COC/C=C/C1=CC2=CC(=O)C(C)(OC(=O)c3cnc4ccccc4n3)C(=O)C2=CN1CCc1ccccn1 (stereo unspecified)	i	0.94	.
52	CC(C)=CCc1cc2c(=O)c3c(O)c4c(cc3oc2c(O)c1O)OC(C)C4(C)C (stereo unspecified)	i	0.58	.
53	Cc1cc(O)c2c(c1)C(=O)c1cc(O)cc(O)c1C2=O	i	1.02	.
54	C#CCNC(=O)C1=C[C@@H](c2ccc(C(F)(F)F)cc2)C[C@@H](OCc2ccc(CO)cc2)O1	i	0.75	.
55	COC/C=C/C1=CC2=CC(=O)C(C)(OC(=O)c3cccs3)C(=O)C2=CO1 (stereo unspecified)	i	0.79	.
56	CCC1S/C(=N/N=C/c2ccco2)N(Cc2ccccc2)C1=O (stereo unspecified)	i	0.98	.
57	CCc1nnc(SCc2cccc(F)c2)nc1CC	i	1.19	.
58	COc1ccc(NC(=O)CCCCC#Cc2ccccc2)cc1	i	1.02	.
59	COc1ccccc1C(=O)NN1C(=O)/C(=C/c2cccn2C)SC1=S	i	1.13	.
60	COc1ccc(-c2oc3ccc(N4CCOCC4)cc3c2C#Cc2ccc(N)cc2)cc1	i	0.64	.

# (listing goes on)
item	Compound	HSV replic up	HSV replic up primary fold	RGS16-Gao HTS
61	CN1[C@@H]2CC[C@H]1CC(OC(=O)c1c[nH]c3ccccc13)C2 (stereo partly specified)	i	0.92	.
62	c1ccc(-c2cnc(-c3ccccc3)nn2)cc1	i	0.86	.
63	CC12C=CC(=O)C=C1CCC1C2C(=O)C[C@@]2(C)C1CCC2(O)C(=O)CO (stereo partly specified)	i	0.78	.
64	COc1cccc(-c2nc(-c3ccc(C(=O)O)cc3)no2)c1	i	0.72	.
65	Cc1nc(N2CCN(C(=O)c3ccco3)CC2)c2oc3ccccc3c2n1	i	0.68	.
66	CCOC(=O)N1C2=NC(C(=O)OC)=C(C(=O)OC)[C@@H]3N(Cc4ccccc4)c4ccccc4[C@]23C[C@H]1C(=O)OC	i	0.8	.
67	O=C1N[C@@H](Cc2cn(S(=O)(=O)c3ccccc3)c3ccccc23)C(=O)N[C@H]1Cc1ccccc1	i	0.67	.
68	Clc1cc(Cl)cc(C2=NC(Cc3ccccc3)CO2)c1 (stereo unspecified)	i	1.16	.
69	C#CCNC(=O)C1=C[C@@H](C)[C@H](CCCO)[C@@H](OCC)O1	i	1.01	.
70	CC(C)NC(=O)c1onc(CSc2ccncc2)c1C(=O)NC(C)C	i	0.95	.

# Going on with the list:
item	Compound	HSV replic up	HSV replic up primary fold	RGS16-Gao HTS
71	COc1ccccc1N1CCN(CCCNc2c(C)c(=O)n(C)c(=O)n2C)CC1	i	0.86	.
72	CCn1cc(C(=O)Nc2cccc(C(=O)OC)c2)c(=O)c2ccc(C)nc21	i	0.91	.
73	Cc1cnc(C(=O)Nc2cccc(-c3nnc4n3CCCCC4)c2)cn1	i	0.96	.
74	COC(=O)CCCC1=CC2=CC(=O)C(C)(OC(=O)c3ccco3)C(=O)C2=CO1 (stereo unspecified)	i	0.83	.
75	Cc1cc(-c2ccc3c(c2)COc2c4ccccc4nn2-3)on1	i	0.84	.
76	CCCc1nnc(NC(=O)c2c(O)c3c([nH]c2=O)CCCC3)s1	i	0.8	.
77	CC(C)=CCc1c(O)ccc(C2COc3c(CC=C(C)C)c(O)cc(O)c3C2=O)c1O (stereo unspecified)	i	0.93	.
78	CCOC(=O)CN1C(=O)N[C@@H](CCc2ccccc2)C(C(C)=O)=C1C	i	1.03	.
79	O=C([C@@H]1CC=C[C@@H]2CCN(C3CC3)C(=O)[C@@H]21)N1CCN(c2ccccc2)CC1	i	0.83	.
80	CCCC[C@H]1C2=C3[C@@H](CC(C(=O)OC)=C[C@@H](C(=O)OC)[C@H]3C(C)(C)C2=O)n2c(=O)n(-c3ccccc3)c(=O)n21	i	0.87	.

# Only part of the results is shown; count on the stated rates, not on these rows.
